# VDR inhibitor: vitamin D3 receptor (human) inhibition; hit rate 0.93% among 400,000; Potency, µM, inactives show max response, negative = inhibition, hits mostly inhibitors; AID 504847; VDR-SRC2-3 peptide fluorescence polarization, 2 h; active = well fitted inhibition curve with a large enough effect; inconclusive = small, poorly fitted or top-dose-only effect, or another doubt; inactive = no such curve, though single readings can be large or run the other way; note: series mostly up to about 120 µM
# Target sequence (P11473 whole entry, looked up): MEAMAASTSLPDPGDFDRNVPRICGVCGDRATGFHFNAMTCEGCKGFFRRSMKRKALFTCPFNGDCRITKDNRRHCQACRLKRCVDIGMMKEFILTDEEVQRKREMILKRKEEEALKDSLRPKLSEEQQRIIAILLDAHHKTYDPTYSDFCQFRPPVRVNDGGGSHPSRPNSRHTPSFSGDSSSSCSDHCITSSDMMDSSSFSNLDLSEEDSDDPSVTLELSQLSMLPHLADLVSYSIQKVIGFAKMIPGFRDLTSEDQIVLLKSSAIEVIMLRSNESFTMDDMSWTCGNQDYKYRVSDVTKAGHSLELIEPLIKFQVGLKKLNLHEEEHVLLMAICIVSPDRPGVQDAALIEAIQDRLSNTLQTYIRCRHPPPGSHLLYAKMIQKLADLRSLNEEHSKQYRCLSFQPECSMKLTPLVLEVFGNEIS
#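 Fluorescence polarization assay measuring small-molecule disruption of VDR binding to the coregulator peptide SRC2-3. Compounds were pin-transferred (23 nl) into the reagent mix and incubated 2 h at room temperature before reading.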
# * hit, by the source's call; ? = inconclusive; & = joins results of further samples; ! = a repeat was not active; [ ] = another dose, or the depositor's remark. % is set by controls: 0 for no effect and ±100 for the full control effect; potency is the fitted concentration of half-maximal effect. The list is partial; the hit share may differ from the screen's.
Compound | VDR inhibitor
O=C(O)c1cccc(C(=O)c2cccc(C(=O)O)c2)c1 | 4.9%
C=C(C)C(=O)O[C@H]1C/C(C)=C\C(=O)/C=C(\C)[C@H](O)[C@@H]2OC(=O)C(=C)[C@@H]21 | ?
N#CC(C#N)=C(N)/C(C#N)=C/c1ccc2[nH]ccc2c1 | 50.1µM*!
Cc1cccn2c(=O)c(C(=O)NCCc3ccc(Cl)cc3)cnc12 | -10.4%
Cc1ccc(CCNC(=O)C2CCCN(S(=O)(=O)c3cnc[nH]3)C2)cc1 (configuration not stated) | -7.4%
Cc1nccn1CCC(=O)Nc1ccc(Cl)cc1 | -23.9%
O=C1c2ccccc2C(=O)N1c1n[nH]c(CCc2ccccc2)n1 | -11.7%
Cc1nc2sc3c(c2c(=N)n1N)CCCC3 | -16.9%
COc1ccc2c3c(c(=O)oc2c1OCC(=O)C(C)(C)C)CCCC3 | -0.1%
CCCc1[nH]c(=O)c(C#N)c2c1CCCC2 | 0.3%

# Looked up by structure from the entries so far, 5 records:
Compound | VDR inhibitor
COc1ccc2c3c(c(=O)oc2c1OCC(=O)C(C)(C)C)CCCC3 | -0.1%
Cc1nccn1CCC(=O)Nc1ccc(Cl)cc1 | -23.9%
O=C(O)c1cccc(C(=O)c2cccc(C(=O)O)c2)c1 | 4.9%
Cc1nc2sc3c(c2c(=N)n1N)CCCC3 | -16.9%
C=C(C)C(=O)O[C@H]1C/C(C)=C\C(=O)/C=C(\C)[C@H](O)[C@@H]2OC(=O)C(=C)[C@@H]21 | ?

# (more compounds)
Compound | VDR inhibitor
CCN1CCN(c2ccc(S(=O)(=O)N3CCCCC3)cc2NC(=O)/C=C/c2cccc(OC)c2OC)CC1 | -8.7%
CCc1ccc(Nc2ncnc3c2cnn3-c2cc(Cl)ccc2C)cc1 | 17.6%
C/C(=C\C(=O)Nc1cscc1C)C(=O)O | -5.2%
CN1CCN(C(=O)C2CCN(S(=O)(=O)c3cnc[nH]3)CC2)CC1 | 18.3%
Cc1ccc2c(c1)C(c1ccccc1)N(C(=O)c1ccccc1)CC(=O)N2 (configuration not stated) | -2.4%
O=C(CNC(=O)c1ccccc1F)NCc1cccnc1 | -6.6%
COc1ccc(C(=O)NCc2nnc(SCC(=O)N3CCOCC3)o2)cc1 | 0.1%
CN(C)c1ccc(NC(=O)CSc2nnc(-c3cnccn3)n2C)cc1 | -19.1%
O=Cc1cccc(Oc2ccc([N+](=O)[O-])cc2[N+](=O)[O-])c1 | -15.2%
COc1ccc2c(CNCCc3cccs3)c(C(=O)O)n(Cc3cccc(F)c3)c2c1 | 1.1%

# An excerpt of these results, field by field.
CCCc1[nH]c(=O)c(C#N)c2c1CCCC2
  VDR inhibitor: 0.3%
CCN1CCN(c2ccc(S(=O)(=O)N3CCCCC3)cc2NC(=O)/C=C/c2cccc(OC)c2OC)CC1
  VDR inhibitor: -8.7%

# (list continues)
Compound | VDR inhibitor
CCC(=O)C1=C(c2ccc(C)cc2)N(C(=O)CC)n2c(nnc2C2CCCCC2)S1 | 6.0%
Nc1nc(CSC(=S)N2CCN(c3ccccc3)CC2)nc(Nc2ccc(F)cc2)n1 | 4.4%
Cc1ccccc1Nc1oc(-c2ccccc2)nc1-c1ccccc1 | -4.4%
CC(=O)Oc1ccc(-c2cccc(C(=O)N3CCCCC3)c2)cc1 | 0.0%
O=C(CCc1ccccn1)NC1CCCc2c1cnn2-c1ccc(F)cc1F (configuration not stated) | -25.4%
C[n+]1cccc(C2C(C#N)=C(N)Oc3c2ccc2ccccc32)c1 (configuration not stated) | -5.3%
COc1ccc(Br)cc1CN(C)CC(=O)Nc1c(Cl)cccc1Cl | -15.6%
CC(C)Cn1cc(Cl)c(=O)n(CC(C)C)c1=O | 9.1%
CC1(C)C=C(c2ccc(O)cc2)CC(C)(C)N1 | -7.3%
CS(=O)(=O)c1nsc2nc(=O)c(/C=C3\C=Nc4ccccc43)c(N)n12 | -0.6%

# Further results follow:
Compound | VDR inhibitor
Cc1ccc(S(=O)(=O)N2CCN(Cc3ccc4c(c3)OCO4)CC2)cc1 | -3.7%
Cc1ccc(NC(=O)COC(=O)c2ccc3c(c2)OCCO3)cc1 | -3.4%
O=C(Nc1cccc2ccccc12)NC1Cc2ccccc2C1 | 7.3%
COC(=O)c1cccc(C(=O)N2CCC(CO)(CCc3ccccc3)CC2)c1 | -8.4%
S=C(NCCCN1CCOCC1)Nc1ccc(Nc2ccccc2)cc1 | 19.5%
Cn1c(Cn2nnc(-c3ccccc3)n2)nnc1SCc1ccccc1Cl | -5.2%
COC(=O)c1ccc(NC(=O)CCc2c(C)nn(-c3ccc(N4CCCCC4)nn3)c2C)cc1 | 10.1%
COc1cccc(NC(=O)CSCn2nnc3c(=O)[nH]c(Cc4ccc(F)cc4)nc32)c1 | 2.9%
O=C(NC(=O)c1ccc(F)cc1)Nc1nc(-c2cccs2)cc(C(F)(F)F)n1 | -16.3%
COc1ccccc1NS(=O)(=O)c1cccc(C(=O)N/N=C/c2ccc(C)o2)c1 | -5.0%

# (more compounds)
Compound | VDR inhibitor
Cc1c(Cl)ccc(S(=O)(=O)N2CCN=C2c2ccccc2)c1Cl | -0.8%
CC1(c2ccc(O)cc2)NC(=O)N(c2ccccc2)N1 (configuration not stated) | 7.3%
O=C(O)c1cccnc1Sc1ccccc1Cl | 24.2%
CCOc1cc(C=NN2CCCCCC2)ccc1O | -19.7%
Clc1ccccc1/C=C/c1ccnc2ccccc12 | ?
O=C(CN1CCN(S(=O)(=O)c2ccccc2)CC1)Nc1ccnn1C1CCCC1 | 1.7%
COc1ccc(-c2nc(-c3ccccc3)c(-c3cc([N+](=O)[O-])ccc3C)[nH]2)cc1OC | -11.5%
COc1ccccc1NC(=O)N1CCc2[nH]c3ccc(F)cc3c2C1 | 6.8%
Cn1cc(Cc2ccccc2)c(=O)c(Cc2ccccc2)c1 | 5.1%
COc1ccc(N2CCOCC2)c(NC(=O)c2cccs2)c1 | -9.9%

# (more compounds)
Compound | VDR inhibitor
C=C1CCC[C@]2(C)C[C@H]3OC(=O)C(CNCCN(C)C)[C@H]3CC12 (some centres not stated) | -7.0%
CC(=O)O[C@H]1CC[C@@]2(C)[C@@H](CC[C@@H]3[C@@H]2CC[C@]2(C)[C@@H](C(C)(C)O)C[C@@H]32)C1 | 5.5%
Cc1cc(C)c(C#N)c(N2CCN(CCOc3ccc(Cl)cc3)CC2)n1 | -7.7%
COc1cccc(OCC(=O)Nc2nnc3n2CCS3)c1 | 4.1%
O=C(CCn1cnc2ccccc2c1=O)Nc1ccc2c(c1)OCCO2 | -0.7%
COc1ccc(CCN(C)C(=O)CN2C(=O)NC3(CCCCC3C)C2=O)cc1OC (configuration not stated) | 8.9%
Cc1cc(C)c(NC(=O)c2cc(CN3CCOCC3)on2)c(C)c1 | 10.0%
O=C1Nc2ccccc2Oc2cc([N+](=O)[O-])cc(Oc3ccccc3)c21 | 10.0%
Cc1ccc(N=Nc2cc(C)ccc2N)cc1 | -7.9%
CCCCC(=O)N/N=C(\C)CC(=O)Nc1ccccc1Br | -2.8%

# (continued)
SMILES,VDR inhibitor
Cc1ccc(NC(=O)CSc2nc3ccccc3c(=O)n2CCCC(=O)N2CCCC2)cc1,-9.3%
Cn1nccc1C(=O)Nc1ccc(S(=O)(=O)N2CCCC2)cc1,-2.2%
CCCCN(C(=O)c1cccc(S(=O)(=O)N(C)c2ccc(C)cc2)c1)c1c(N)n(CCCC)c(=O)[nH]c1=O,20.4%
Cc1cccc(-n2nnnc2SCC(=O)NC2CCCC2)c1,18.3%
CCn1c(C)nc2cc(C(=O)OCCC(F)(F)F)ccc21,10.6%
O=C(C1CCCO1)N1CCN(C(=S)Nc2ccc(Cl)c(Cl)c2)CC1 (configuration not stated),21.0%
COc1ccc(N2CCN(C(=O)Cn3cncn3)CC2)cc1,-12.7%
COc1ccc(Oc2ccccc2C=O)cc1,11.3%
N/C(=N/OCC(=O)Nc1cccc2ccccc12)c1nonc1N,7.5%
CCCCn1c(N)c(N(CCOC)C(=O)COC(=O)/C=C/c2ccc(Br)cc2)c(=O)[nH]c1=O,7.3%
COC(=O)N/N=C/c1ccc(-c2ccc(Cl)cc2Cl)o1,3.3%
N[C@@H](Cc1ccccc1)C(=O)N1CCC(C(=O)NCC(=O)NCC(=O)O)CC1,-13.7%
COc1cc(-c2nnc(COC(=O)c3cc(C)nc4ccc(C)cc34)o2)cc(OC)c1OC,31.9%[activator]
Cc1c(C(=O)N/N=C/c2ccc(Cl)cc2)[nH]c2ccc(Cl)cc12,-13.7%
O=C(NC1CCS(=O)(=O)C1)/C(=C\c1ccc(F)cc1)NC(=O)c1ccccc1 (configuration not stated),-10.6%

# (next part)
SMILES,VDR inhibitor
CCOC(=O)c1ccc(NC(=O)c2cnccn2)cc1,8.5%
COc1ccc(/C=C(/NC(=O)/C=C/c2ccccc2)C(=O)NCCCCCC(=O)O)cc1,15.9%
O=C1C=C(c2cc(C(F)(F)F)cc(C(F)(F)F)c2)C[C@@H](c2ccc3c(c2)OCO3)C1,-17.7%
O=C(NCCCN1CCN(c2ccccc2F)CC1)Nc1ccccc1[N+](=O)[O-],2.9%
Cc1cccnc1CNC(=O)C1CCC(=O)N(CCc2cccc(F)c2)C1 (configuration not stated),12.8%
CCN(CC)C(=O)CSC1=N/C(=C/c2ccco2)C(=O)N1c1ccc(OC)c(Cl)c1,-21.5%
CCOC(=O)C1CCN(C(=O)CCc2nnc3ccc(N4CCN(C)CC4)nn23)CC1,-4.5%
COc1cc([C@H]2c3cc4c(cc3[C@@H](O[C@H]3O[C@H]5CO[C@@H](C)O[C@H]5[C@@H](O)[C@@H]3O)[C@@H]3COC(=O)[C@H]23)OCO4)cc(OC)c1O,-1.0%
O=C(COC(=O)CCCOc1ccccc1)NC1CCS(=O)(=O)C1 (configuration not stated),13.7%
CC1CCc2ccccc2N1C(N)=Nc1ccccc1 (configuration not stated),1.0%
COc1ccc(-c2cn3nc4c(nc3n2)CCCC4)cc1,11.3%
C/C(=N/O)c1ccc2c(c1)OCCOCCOc1cc(/C(C)=N/O)ccc1OCCOCCO2,2.1%
CCc1ccc(NC(=O)NCC2CCN(Cc3cccc(Cl)c3)CC2)cc1,-6.1%
COc1ccc(C2C(C#N)=C3NC(=O)c4c(sc5c4CCCCC5)N3C3=C2C(=O)CC(C)(C)C3)cc1 (configuration not stated),9.0%
CCOc1ccc(S(=O)(=O)N2CN(c3cccc(C(C)=O)c3)c3nc4ccccc4nc32)cc1,-9.4%

# The list continues.
SMILES,VDR inhibitor
COc1ccccc1Oc1ccc2c(c1)C(=O)N(c1cccc3ncccc13)C2=O,-16.9%
COCCCNc1nc2c(c(=O)[nH]c(=O)n2C)n1CC(O)COc1cccc(C)c1 (configuration not stated),-4.0%
COc1ccccc1Oc1ncnc2c1oc1ccccc12,-12.3%
COc1ccccc1CNC(=O)C1CCN(Cc2nc(-c3ccc(OC)c(OC)c3)oc2C)CC1,1.0%
O=C(Nc1cccc(C(F)(F)F)c1)OCCN1CCN(Cc2ccccc2)CCC1=O,3.2%&-9.4%
COC1C[C@@H](O[C@@H]2C(C)C(=O)OC(C)C(C)[C@H](OC(C)=O)C(C)C(=O)[C@@]3(CO3)CC(C)C(OC3OC(C)CC(N(C)C)[C@H]3OC(C)=O)C2C)OC(C)[C@@H]1OC(C)=O (some centres not stated),11.2%
O=C(CN1CCN(C(=O)c2ccco2)CC1)Nc1cccc([N+](=O)[O-])c1,-8.2%
C=CCNC(=O)C(=O)N/N=C/c1ccco1,12.3%
CC(=O)c1c(C)oc2ccc(N(C(=O)c3ccncc3)S(=O)(=O)c3ccccc3)cc12,-7.2%
Cc1nn(C(C)C(=O)NC2CCC(C)CC2)c(=O)c2nn(-c3ccccc3)c(C)c12 (configuration not stated),-3.9%
COC(=O)c1ccc(-c2ccco2)n1Cc1nc(-c2ccc(OC)c(OC)c2)oc1C,-0.3%
O=[N+]([O-])c1cccnc1Sc1ccc(Br)cc1,-3.4%
O=C(NNC(=O)c1cccc(S(=O)(=O)Nc2ccc(Cl)cc2)c1)c1ccc(=O)[nH]c1,1.4%
CCOCCCNC(=O)C(NC(=O)Cc1cccs1)c1ccc(OC)cc1 (configuration not stated),2.3%
CCCCn1c(N)c(N(CCC(C)C)C(=O)c2ccc(C)c(S(=O)(=O)N3CCOCC3)c2)c(=O)[nH]c1=O,-9.4%

# Remaining list, next part
SMILES,VDR inhibitor
CCOC(=O)c1ccc(NC(=O)C(CC)Sc2nc3ncccc3o2)cc1 (configuration not stated),0.5%
COc1ccc(CC(=O)Nc2sccc2C#N)cc1S(=O)(=O)N1CCOCC1,-5.2%
CCS(=O)(=O)N1CCC(C(=O)NCc2ccc(OC)cc2)CC1,-8.1%
Cc1cccc(NC(=O)CNCC(=O)Nc2cccc(C)c2C)c1C,17.9%
CN(C)S(=O)(=O)c1ccc(C(=O)OC2CCOC2=O)cc1 (configuration not stated),-1.3%
Cc1ccc(S(=O)(=O)CCC(=O)OCC(=O)NCCc2ccc(S(N)(=O)=O)cc2)cc1,8.6%
COC(=O)C1CC(c2ccc(Cl)cc2)=NO1 (configuration not stated),2.5%
CCCCCC(=O)NC(Cc1ccc(OC)c([N+](=O)[O-])c1)C(=O)O (configuration not stated),?
CCCCN(C)C(=O)c1ccc2c(c1)N(CC)C(=O)c1ccccc1S2=O (configuration not stated),-13.8%
Cn1nnnc1SCc1nc2ccccc2[nH]1,3.3%
CC(=O)Nc1ccc(S(=O)(=O)N(C)c2ccc(OCC(=O)OCC(=O)Nc3ccc(OC(F)F)cc3)cc2)cc1,1.5%
C/C(=N\NC(=O)CNC(=O)C(c1ccccc1)c1ccccc1)c1ccccc1,-17.3%
CCOc1ccc(NC(=O)C2C3CC/C=C\CCC32)cc1 (configuration not stated),-20.2%
COc1ccccc1N1CCN(C(=O)COc2ccc(C)cc2Br)CC1,-0.9%
Cc1cc(C)cc(Oc2ccccc2/C=N\O)c1,1.0%
COc1ccc(-c2csc3ncnc(N4CCN(S(=O)(=O)c5cccc(Br)c5)CC4)c23)cc1,4.5%
COC(=O)c1cccc(NC(=O)c2nsc3ccccc23)c1,15.2%
CN(C)c1ccnc(Oc2ccc(Cl)cc2)c1C#N,-4.6%

# Screening data from PubChem BioAssay.
